Sfp inh: inhibitors of Bacillus subtilis Sfp phosphopantetheinyl transferase. Q9F4F7. Biochemical Sfp PPTase activity, qHTS. Potency, µM, without a hit: max response, negative = inhibition, actives largely listed as inhibitors. 3.5% of 310,000 active. AID 1490; active = well fitted inhibition curve with a large enough effect; inconclusive = small, poorly fitted or top-dose-only effect, or another doubt; inactive = no such curve, though single readings can be large or run the other way;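 also: the enzyme is Sfp with the accession as filed and its product quenches rhodamine fluorescence; potency is read from the fitted curve at half-maximal effect; 0% = enzyme reaction without inhibitor and -100% = no enzyme wells; top concentration of the series not given in the record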
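Compounds were incubated with enzyme (final 15 nM) for 15 min at room temperature before substrate addition started the reaction. Fluorescence at 525 nm excitation, 598 nm emission was recorded immediately and after 30 minutes.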
TRPML1 ag: agonists of human TRPML1 channel | Q9GZU1 | TRPML1-expressing cells, Ca2+ dye fluorescence, FDSS; host cell line not named in the record; reference of the full effect not given here | activation, % (concentration not given with the values) | 0.12% of 410,000 active; in the data active = activation above about 50%; inconclusive = about 30% to 50%; inactive = below about 30%; also: 0% is about no effect; the text of the record puts the active cut at 80%
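Tet-induced TRPML1-DL cells, 1,500 per well, cultured overnight, were loaded with a no-wash Ca2+ dye for 45–90 min. Calcium fluorescence was recorded on the FDSS for 110 s after compound addition, before the EC80 agonist (4 uM 54-4) was added.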
TRPML1 blocker: human mucolipin-1 channel inhibition | 0.02% of 390,000 active | TRPML1-inducible cells, Ca2+ dye fluorescence, FDSS; stronger effect = lower value; inhibition of EC80 agonist-evoked calcium signal | AID 624415 | activity change, negative = inhibition, % (test concentration not listed); in the data active means activity change below about -50%; inconclusive means about -30% to -50%; inactive means above about -30%;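 also: stimulus is agonist 54-4 at its EC80 concentration; % is scaled to controls: 0 for no effect and ±100 for the full control effect; compound concentration not given in the record; the text of the record puts the active cut at -80%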
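TRPML1-DL cells, Tet-induced overnight (~16 h, 37 °C) at 1,500 cells/well, were loaded with Ca8 no-wash dye plus quencher for 45-90 min at room temperature. Compounds were pinned during FDSS kinetic reading; agonist 54-4 at EC80 (4 uM final) then added.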
TRPV1 PAM: human TRPV1 potentiation. Q8NER1. TRPV1-expressing cells, Fluo-8 calcium influx, capsaicin EC20 potentiation; host cell line not named in the record; control for the full effect not named in the record. potentiation, % at 8.33 µM. 0.02% of 320,000 active. AID 540277; active means potentiation above 80%; inconclusive means 30% to 80%; inactive means below 30%; also: 0% is about no effect
Target sequence (Q8NER1 whole entry, looked up): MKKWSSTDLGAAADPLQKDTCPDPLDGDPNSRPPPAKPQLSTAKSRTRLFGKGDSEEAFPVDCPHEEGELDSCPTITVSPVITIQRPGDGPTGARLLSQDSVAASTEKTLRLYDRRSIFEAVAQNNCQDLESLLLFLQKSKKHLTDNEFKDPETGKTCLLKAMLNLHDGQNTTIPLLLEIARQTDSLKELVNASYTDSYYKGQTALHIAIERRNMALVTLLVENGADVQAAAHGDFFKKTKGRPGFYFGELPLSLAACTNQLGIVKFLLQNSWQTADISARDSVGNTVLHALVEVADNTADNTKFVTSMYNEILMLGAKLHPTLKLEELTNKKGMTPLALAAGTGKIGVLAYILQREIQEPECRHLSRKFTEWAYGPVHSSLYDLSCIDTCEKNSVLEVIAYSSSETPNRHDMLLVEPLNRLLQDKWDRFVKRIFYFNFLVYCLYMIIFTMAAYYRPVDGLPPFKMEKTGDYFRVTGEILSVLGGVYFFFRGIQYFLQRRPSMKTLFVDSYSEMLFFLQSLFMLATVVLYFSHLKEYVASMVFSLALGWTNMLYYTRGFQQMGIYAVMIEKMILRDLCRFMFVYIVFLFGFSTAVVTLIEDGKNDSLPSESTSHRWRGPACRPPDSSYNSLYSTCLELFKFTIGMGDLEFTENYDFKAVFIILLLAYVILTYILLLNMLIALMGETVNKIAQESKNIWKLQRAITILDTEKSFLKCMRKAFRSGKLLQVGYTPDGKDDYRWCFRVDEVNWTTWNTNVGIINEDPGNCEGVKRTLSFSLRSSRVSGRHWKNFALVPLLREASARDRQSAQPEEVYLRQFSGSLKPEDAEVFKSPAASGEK
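TRPV1-expressing cells were cultured overnight at 35.5C and loaded with Fluo-8 calcium dye for 40 to 90 min at room temperature. After a 10 s baseline, compound was added and calcium influx was read kinetically for 3 min (ex 480/em 520 nm).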
PINK1 expr mod: changes PINK1 expression. PINK1 immunofluorescence, high-content cytometry, 24 h. Potency, µM (top dose mostly 76.6 µM), for the others: at the highest dose activation (PINK1 increase), actives largely listed as activators. 0.2% of 410,000 active. AID 624263; active = well fitted activation curve with a large enough effect; inconclusive = small, poorly fitted or top-dose-only effect; inactive = flat fitted curve, though single readings scatter; cell line not stated here;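 also: potency is read from the fitted curve at half-maximal effect; % of control where 0% means no effect; nearly all actives have a fitted effect of over 65% in size; a mitochondrial uncoupler was the plate control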
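Stable cell line, 250 cells/well, 12 h attachment; compounds pinned at 5 concentrations, 24 h; CCCP control. Fixed with nuclear dye, primary antibodies 12 h at 10 degrees C, secondary plus cell stain; laser-scanning cytometer read.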
ClpP mod: qHTS Assay for Activators of ClpP. purified B. subtilis ClpP, FRET peptide cleavage, 20 min. Potency, µM (titrated, usually from 57.5 µM), for the others: at the top dose activity change, negative = active. 1.9% of 340,000 active. AID 651965, 2013; active = well fitted falling curve with a large enough effect; inconclusive = small, poorly fitted or top-dose-only effect; inactive = no such curve, though single readings can be large or run the other way; also: potency is read from the fitted curve at half-maximal effect; the source files actives as falling curves though it sought activators and does not explain the sign; nearly all actives have a fitted effect of over 65% in size; many hits overshoot -100%
Target sequence (P80244 whole entry, looked up): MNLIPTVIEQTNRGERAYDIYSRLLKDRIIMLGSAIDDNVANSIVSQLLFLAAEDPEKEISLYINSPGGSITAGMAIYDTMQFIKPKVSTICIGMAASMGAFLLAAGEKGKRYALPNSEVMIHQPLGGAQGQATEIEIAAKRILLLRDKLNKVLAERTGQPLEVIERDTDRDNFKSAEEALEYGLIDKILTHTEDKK
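ClpP 10 microg/mL final, pH 8 Tris/KCl buffer with BSA, glycerol, Tween-20; compound pinned in; FRET-FV substrate; RT 20 min; Ex320/Em430; ΔFRET vs ADEP 5.8 microM, DMSO, no enzyme.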
Menin MLL FP FL: menin-MLL binding inhibition, fluorescein peptide | Fluorescence polarization, fluorescein-MLL peptide displacement from menin | AID 1766 | 290,000 tested, under 10 active | FP activity change, % at 61.4 µM; inconclusive = falling polarisation curve, or a change in total fluorescence; inactive = total fluorescence flat and polarisation flat or rising; no compound was filed as active; the % refers to the polarisation; negative = inhibition;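 also: % of control where 0% means no effect; inhibitors lower the polarisation; unlabelled MLL peptide was the positive control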
* = called active by the depositor; ? = inconclusive; / = no result given; [ ] = another dose, or the depositor's remark. No enrichment for hits; 4.4% or so of the library scored in one or more.

SMILES	Sfp inh	TRPML1 ag	TRPML1 blocker	TRPV1 PAM	PINK1 expr mod	ClpP mod	Menin MLL FP FL
O=C(O)CCC1(CCC(=O)O)c2ccccc2-c2ccccc21	18%	-0.7	11	?	1.8%	/	6.6
CC(C)(CO)N=C1NS(=O)(=O)c2cc([N+](=O)[O-])ccc21	-3%	0.8	10	5	-2.0%	-2.5%	-3.8
CCOc1ccc(CCNC(=O)CCn2ccc3cc(S(=O)(=O)N4CCCC4)ccc32)cc1	3%	1.3	-4	1	1.0%	-3.0%	-1.2
COc1ccc(Cc2nnc(NS(=O)(=O)c3ccc(Cl)cc3)s2)cc1OC	-18%	0.7	-7	3	-0.8%	/	1.1
Nc1ncc(Br)cc1S(=O)(=O)NCCC(=O)NCCc1ccc(Cl)cc1	8%	-1.1	-3	-1	-0.2%	-12%	/
CCn1c(Cc2ccc(OC)cc2)nnc1SCC(=O)NC1CCCCC1	7%	2.1	10	20	-0.8%	-4.5%	5.3
COc1ccc(NC(=O)c2sc(SCc3ccccc3)nc2N)cc1	?	-1.0	-2	2	-0.3%	2.5%	2.6
Cc1cc2nccnc2cc1C	/	-0.2	14	/	-0.3%	/	/
CC1(NC(=O)Cn2cc(C(F)(F)F)ccc2=O)CCS(=O)(=O)C1 (configuration not stated)	/	1.0	11	9	1.0%	-2.0%	/
Nc1nc(SCc2ccccc2)c2ncn(C3OC(CO)C(O)C3O)c2n1 (configuration not stated)	/	-0.2	0	/	-0.5%	/	/
Cc1coc2c(C)c3oc(=O)c(CCC(=O)NCCC(=O)O)c(C)c3cc12	-3%	0.0	7	-8	1.6%	/	-7.3
CC(=O)Nc1ccc(S(=O)(=O)N2CCN(C(=O)N3CCOCC3)CC2)cc1	5%	-0.3	-12	-4	3.8%	?	-0.2
CCN(CC)CCNS(=O)(=O)c1ccc(Cl)cc1	12%	0.6	-4	5	1.9%	-0.6%	0.6
CC(C)CNC(=S)NC(=O)c1ccc([N+](=O)[O-])cc1	7%	0.6	44	-15	2.1%	2.2%	1.3
CC(NC(=O)c1ccc(C(C)(C)C)cc1)C(=O)O (configuration not stated)	-12%	0.7	18	-12	?	-0.2%	0.5
COc1ccc(Nc2nc3c(C)cccc3cc2C#N)cc1	2%	5.0	78	4	3.0%	/	5.8
COCCNc1ncnc2c1c(-c1ccccc1)cn2-c1cccc(Cl)c1	/	3.9	53	/	0.1%	-7.6%	/
Cc1ccc2[nH]c(=O)c(CN(C)C(=O)c3cccs3)cc2c1	-7%	1.1	4	1	-0.4%	/	-4.8
CC(=O)Oc1ccc2occ(C(=O)c3ccccc3)c2c1	/	2.0	-5	/	-1.0%	/	/
O=C(NC(=S)Nc1ccccc1)c1ccc(Br)o1	3%	1.2	-2	-8	5.0%	1.1%	2.0
COc1ccc(NC(=O)c2ccco2)cc1NC(=O)c1cccs1	20%	1.5	-7	28	-2.6%[38.3 µM]	2.2%	2.1
Cc1csc(NC(=O)c2cc(C)nc3ccccc23)n1	2%	-0.9	1	-3	0.3%	/	0.5
CCOC(=O)N1CCN(C(=O)COC(=O)c2cc(Cl)c(O)c(Cl)c2)CC1	13%	2.7	53	-8	0.6%	/	1.1
CCn1cc(C(=O)OCC(=O)N(C)Cc2ccccc2)c(=O)c2ccc(C)nc21	19%	-0.8	29	0	2.3%	/	-0.4
Cc1cccc(NC(=O)c2ccc(-n3cccn3)c([N+](=O)[O-])c2)c1	-2%	-0.4	3	3	2.7%	0.2%	1.0

As entered above.
CCN(CC)CCNS(=O)(=O)c1ccc(Cl)cc1 in TRPML1 blocker is entered as -4
COc1ccc(NC(=O)c2sc(SCc3ccccc3)nc2N)cc1 in TRPML1 blocker is entered as -2

Remaining list, next part.
SMILES	Sfp inh	TRPML1 ag	TRPML1 blocker	TRPV1 PAM	PINK1 expr mod	ClpP mod	Menin MLL FP FL
COc1ccc2c(c1)C1NC(=S)N[C@@](C)(O2)C1C(=O)Nc1ccccc1 (some centres not stated)	2%	-1.0	2	-10	3.3%	-1.4%	-5.6
Cc1ccc(OCCSc2nc3ccc(NC(=O)COc4ccc(C)cc4)cc3s2)cc1	/	-0.2	-14	/	0.0%	3.4%	/
CC(=O)c1ccccc1OC(=O)CCN1C(=O)C2C3C=CC(C4CC34)C2C1=O (configuration not stated)	-2%	0.1	-7	-9	3.3%	0.1%	-0.2
NC(=O)c1ccsc1NC(=O)COC(=O)/C=C/c1ccc([N+](=O)[O-])cc1	-13%	-0.6	2	-1	1.7%	/	-1.3
O=C(CSc1nc(=O)n2ccccc2n1)N1N=C(c2cccs2)CC1c1ccc(F)cc1 (configuration not stated)	/	1.2	-7	16	4.5%	-4.0%	/
COc1ccccc1CNCc1cc(OC)c(OC)cc1OC	13%	0.1	-18	17	1.8%[38.3 µM]	-1.7%	0.1
CCCC[C@@H]1CN=C(N)N1CCc1cccc(F)c1	/	-0.9	2	/	6.8%	-1.0%	/
N=c1c2c3c(sc2ncn1N)CCCCC3	0%	-0.5	10	5	/	1.7%	-0.9
N#C/C(=C/c1ccc(O)c(O)c1)C(=O)NCc1ccc(Cl)cc1	-11%	0.3	0	-1	-1.2%	/	?
CC(=O)Nc1nc(C)c(Oc2cccc(C(F)(F)F)c2)c(=O)[nH]1	-21%	-0.2	-4	-8	1.2%	/	5.5
COC(=O)c1ccccc1NC(=O)C1=CC(c2ccc(C)cc2)=NS(=O)(=O)N1C	/	1.7	23	/	-1.5%	-2.8%	/
CS(=O)(=O)Nc1cccc(C2=NN(C(=O)c3ccccc3)C(c3cccs3)C2)c1 (configuration not stated)	1%	0.8	-14	9	1.7%	-1.6%	-9.1
CCOc1ccc(C2N(c3cc(C)on3)C(=O)C3CCCN32)cc1OC (configuration not stated)	7%	1.3	40	4	-1.2%	-2.6%	0.1
CC1(C)Cc2c(cnn2-c2ccc(F)cc2)C(NC(=O)CCN2CCCC2=O)C1 (configuration not stated)	15%	0.2	?	-5	0.2%	-1.6%	1.3
Cc1cc(Cl)cc(Cl)c1OCCN1CCCC1	-1%	0.5	29	?	1.4%	-0.5%	-6.6
C=CC[n+]1c(-c2ccccc2)csc1NC(C)(C)C	2%	-0.3	-12	-8	2.0%	/	-0.7
CCN(CC)S(=O)(=O)c1ccc(C(=O)NCCSc2c(-c3ccc(C)cc3)[nH]c3ccccc23)cc1	/	0.2	13	/	-0.2%	-1.2%	/
Oc1ccc(Cl)cc1C1C=C(c2ccc3c(c2)OCO3)NC(c2ccc(F)c(Br)c2)N1 (configuration not stated)	/	2.1	1	3	1.2%	/	/
CCNC(=O)N1C(=O)C2(OCCO2)c2ccccc21	12%	0.0	-10	0	2.5%	-0.8%	-1.7
CCN(C(=O)c1cc2c(=O)oc3ccccc3c2s1)c1ccccc1F	/	-0.8	15	/	0.6%	-2.6%	/
Cc1cccc2sc(N(CCN(C)C)C(=O)C3CCN(S(=O)(=O)c4cccs4)CC3)nc12	/	-0.2	0	-18	2.8%	-1.5%	/
O=C1NC(Nc2nc3ccccc3s2)(C(F)(F)F)C(=O)N1C1CCCCC1 (configuration not stated)	9%	1.1	10	0	7.9%[38.3 µM]	-1.0%	-0.4
Cc1ccc(C)c(NC(=O)Cn2c(=O)n(Cc3nc(C)no3)c(=O)c3cc4c(cc32)OCO4)c1	/	2.0	31	/	0.0%	?	/
O=C(COc1ccccc1)N=C1SC2CS(=O)(=O)CC2N1c1ccccc1F (configuration not stated)	-10%	-0.1	2	-14	0.2%	-0.9%	0.3
Cc1ccc(CNC(=O)c2ccc(Cn3nc(C)c(Cl)c3C)o2)cc1	?	-1.3	-14	1	0.3%	-1.8%	5.0

Next structures:
SMILES	Sfp inh	TRPML1 ag	TRPML1 blocker	TRPV1 PAM	PINK1 expr mod	ClpP mod	Menin MLL FP FL
CCN(CC)c1ccc(NC(=O)CCS(=O)(=O)c2ccc(Br)cc2)c(C)c1	10%	-0.9	-9	-9	10%	-1.3%	0.8
C=CCN(CC=C)Cc1cc(=O)oc2ccccc12	/	-0.7	/	/	0.0%	0.9%	/
C=CCn1c2ccccc2c2nnc(SCC(=O)NC(C(=O)OC)C(C)C)nc21 (configuration not stated)	-8%	-1.4	26	-3	-1.2%	2.9%	-0.7
CC12CCC(O)CC1=CCC1C2CCC2(C)C(c3ccn[nH]3)CCC12 (configuration not stated)	/	0.4	12	/	-2.7%	/	/
Cc1ccc(S(=O)(=O)NCCN2CCN(S(=O)(=O)c3ccccc3Cl)CC2)cc1	/	-0.1	-2	8	-1.4%	-2.3%	/
CSCC[C@H](N)C(=O)NC[C@H]1CC[C@H](C(=O)N[C@@H](Cc2ccccc2)C(=O)O)CC1	11%	0.9	-16	7	-2.4%	0.7%	-4.5
COC1CCCN(Cc2cn(C)nc2-c2ccc(Oc3ccccc3)cc2)C1 (configuration not stated)	7%	0.3	-7	0	0.5%	/	1.5
Cc1cc(C)nc(Nc2ccc(Cl)cc2C)n1	-9%	0.1	-1	0	-1.0%	-0.1%	0.7
COc1ccccc1C1NC(=O)NC(C)=C1C(=O)OCc1ccccc1 (configuration not stated)	25%	0.5	-12	17	-0.4%	-4.1%	0.1
COc1ccc2cc(C(=O)N3CCCC(Nc4ccc(F)cc4)C3)n(C)c2c1 (configuration not stated)	1%	0.0	4	10	2.5%	1.5%	/
Cc1nn2c(=O)cc(COC(=O)c3ccc(NC(=O)c4ccc(C(C)(C)C)cc4)cc3)nc2s1	/	3.6	10	/	-0.6%	?	/
N#Cc1cccc(NC(=O)N2CC[C@@]3(CCCNC3)C2)c1	79µM*	/	/	/	-0.3%	/	-0.3
COc1ccccc1CN1CCCCCC1	8%	0.5	6	-4	-1.7%	-10%	2.0
COc1ccc2c(c1)CC/C(=C/c1cc(OC)c(OC)c(OC)c1)C2=O	?	1.2	16	-14	1.6%	/	-0.5
O=C(Nc1ccc(Oc2ccc(Br)cc2)cc1)C1=CC=CN2CCS(=O)(=O)N=C12	/	0.6	-5	-11	6.6%	3.0%	/
O=C1c2ccccc2C(=O)N1CCc1nc(-c2ccccn2)no1	0%	0.3	6	28	-4.3%[38.3 µM]	-0.1%	2.3
O=C(O)CCCCCN=C1CCc2ccccc2N1	17%	-0.5	-2	-9	0.8%[38.3 µM]	1.3%	6.1
COc1ccc(C(=O)C2CCCN(C(=O)c3ccnn3C)C2)c(C)c1 (configuration not stated)	6%	0.1	5	0	13%	-10.0%	/

Assay outcomes as filed in PubChem.
